# Assay outcomes from PubChem BioAssay.
# INS promoter inh: inhibitors of insulin promoter-driven GFP, primary screen, imaging, TRM-6 cells (human fetal islet line), eGFP reporter, cell count | AID 1273, 2008 | reporter expression induced with tamoxifen | 130,000 tested, 0.9% active | inhibition, % at 2 µM;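 active = inhibition above the mean plus 3 SD, with well images judged a real hit on visual review, cut at about 60% in these data, passing the limit was not always enough; inconclusive = inhibition over the cutoff but images rejected on review; inactive = inhibition not above the cutoff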
# GALR2 ag: GALR2 receptor agonists, primary screen, cell-based; GALR2-expressing cells, agonist activation read-out; activation, %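 (tested at 5 µM)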; 140,000 tested, 0.48% active;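 active = above mean plus 3 SD of all compounds, about 5% in these data, not always enough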;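 also: 0% = vehicle buffer wells and 100% = reference agonist at full effect; tested in CHO reporter cells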
# RGS16-Gao HTS: modulators of RGS16 binding to Galphao, primary screen, biochemical, human proteins, multiplexed bead flow cytometry; Regulator of G-protein signaling 16 (Homo sapiens) + Guanine nucleotide-binding protein …; bead-based flow cytometry RGS16-Galphao binding, fluorescence; actives lie on both sides; binding response (% of control), % at 10 µM; 220,000 tested, 0.38% active;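 active = below 25% or above 175%, edge rows of some plates excepted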;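 also: Galphao activated by GDP with aluminum fluoride before binding; 100% = wells without compound and 0% = beads without RGS; some results beyond the cut were filed as inactive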
# PKD1 inh: inhibitors of human PKD1 kinase, biochemical, fluorescence polarization; Serine/threonine-protein kinase D1 (Homo sapiens), Q15139; PKD1 kinase fluorescence polarization assay; 200,000 tested, 0.056% active; inhibition, %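 (about 10 µM by stock and volumes)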;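 active = inhibition of 50% or more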;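 also: controls were vehicle for no effect and a reference inhibitor for full effect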
# Target sequence (Q15139 whole entry, looked up): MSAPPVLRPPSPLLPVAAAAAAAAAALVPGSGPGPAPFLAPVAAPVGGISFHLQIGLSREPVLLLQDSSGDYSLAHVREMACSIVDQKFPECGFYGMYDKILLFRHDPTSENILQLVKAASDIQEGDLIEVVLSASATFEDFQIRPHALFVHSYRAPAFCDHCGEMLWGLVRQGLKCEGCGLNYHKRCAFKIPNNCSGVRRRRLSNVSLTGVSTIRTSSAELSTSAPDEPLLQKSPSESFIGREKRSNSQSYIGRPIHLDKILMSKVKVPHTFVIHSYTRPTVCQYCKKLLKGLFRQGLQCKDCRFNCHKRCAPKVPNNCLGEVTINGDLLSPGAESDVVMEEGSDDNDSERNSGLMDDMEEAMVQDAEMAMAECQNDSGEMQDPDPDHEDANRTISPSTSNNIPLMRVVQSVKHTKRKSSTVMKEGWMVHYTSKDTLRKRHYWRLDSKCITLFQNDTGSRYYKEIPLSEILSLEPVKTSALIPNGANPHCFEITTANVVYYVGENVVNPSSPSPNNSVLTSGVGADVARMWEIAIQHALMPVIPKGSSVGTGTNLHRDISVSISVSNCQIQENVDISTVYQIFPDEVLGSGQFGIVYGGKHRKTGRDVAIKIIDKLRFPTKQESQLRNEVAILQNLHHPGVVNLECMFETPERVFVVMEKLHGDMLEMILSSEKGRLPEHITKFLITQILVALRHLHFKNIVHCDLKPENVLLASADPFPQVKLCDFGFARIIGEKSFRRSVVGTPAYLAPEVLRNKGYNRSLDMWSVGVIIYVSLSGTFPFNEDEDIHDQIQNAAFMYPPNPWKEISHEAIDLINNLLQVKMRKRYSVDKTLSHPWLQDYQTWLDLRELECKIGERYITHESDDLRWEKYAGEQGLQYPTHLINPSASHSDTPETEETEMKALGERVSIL
# HSV replic up: enhancers of HSV replication in host cells, fold increase, host cell viability; HSV replication augmentation in cells; maximum fold increase; 220,000 tested, 0.005% active; AID 1956, 2009;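 active = peak rise of 1.5-fold or more in the series; inconclusive = self-fluorescent or not available for retest; tested in PC3 cells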;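 also: first round at 10 µM; read as green reporter fluorescence; hits show the peak of a series up to 25 µM; 1 = signal of infected wells without compound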
# INS promoter inh cell count: also measured in INS promoter inh; calls as there; normalized cell count, %; measured here: cell count, toxicity; reference of the scale not given here;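 cells exposed to compound for 48 h; stained nuclei by imaging scaled within each plate; lower means fewer cells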
# HSV replic up primary fold: recorded beside HSV replic up, whose call it bears; fold increase; compound at 10 µM; measured here: primary screen fold increase 10 uM; tested in PC3 cells;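 GFP signal in the first replicate; 1 = infected wells without compound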
# Active calls of the source: *; i = inactive; ? = inconclusive; · = not tested or not shown. Random draw from the library; overall some 1.1% were active at least once.
item	compound	INS promoter inh	INS promoter inh cell count	GALR2 ag	RGS16-Gao HTS	PKD1 inh	HSV replic up	HSV replic up primary fold
1	COC(=O)Cc1[nH]nc2c1C1(C(=O)N(Cc3ccc(Cl)cc3)c3ccccc31)C(C#N)=C(N)O2 (stereo unspecified)	-7	96	-1.6	96	1	i	0.99
2	CC(=O)c1cccc(S(=O)(=O)NC2CCCCCC2)c1	47	124	-1.1	106	-6	i	1
3	Cc1nnc(NC(=O)CSc2cn(Cc3ccccc3)c3ccccc23)s1	·	·	-3.2	102	9	i	1
4	O=C(COc1ncnc2ccccc12)Nc1cc(S(=O)(=O)N2CCOCC2)ccc1Cl	·	·	·	99	·	i	0.96
5	COC(=O)CC1=C(C(=O)OC)C(c2ccncc2)C(C#N)=C(N)O1 (stereo unspecified)	-14	85	-1.4	97	6	i	1
6	c1cc(C2OCCN2CC2COC3(CCCC3)O2)ccn1 (stereo unspecified)	26	80	-1.4	135	0	i	1.1
7	O=C(COC(=O)c1cc(=O)[nH]c2ccccc12)c1ccccc1	33	116	·	95	3	i	0.89
8	COc1ccc(C(CC(=O)O)NC(C)=O)cc1OC (stereo unspecified)	22	72	-2.3	99	10	i	0.77
9	CC1=CC(C)(C)N(S(=O)(=O)c2ccc(C)cc2)c2ccccc21	18	65	-0.2	96	-14	i	0.61
10	COc1ccc([N+](=O)[O-])c(OC)c1C(=O)NC(=O)Nc1c(F)cc(F)cc1F	·	·	·	104	·	i	0.91

# By substructure, the entries above with a cyano group (two)
item	compound	INS promoter inh	INS promoter inh cell count	GALR2 ag	RGS16-Gao HTS	PKD1 inh	HSV replic up	HSV replic up primary fold
1	COC(=O)Cc1[nH]nc2c1C1(C(=O)N(Cc3ccc(Cl)cc3)c3ccccc31)C(C#N)=C(N)O2 (stereo unspecified)	-7	96	-1.6	96	1	i	0.99
5	COC(=O)CC1=C(C(=O)OC)C(c2ccncc2)C(C#N)=C(N)O1 (stereo unspecified)	-14	85	-1.4	97	6	i	1

# Next part:
item	compound	INS promoter inh	INS promoter inh cell count	GALR2 ag	RGS16-Gao HTS	PKD1 inh	HSV replic up	HSV replic up primary fold
11	N#Cc1cn(Cc2ccccc2)c(=O)[nH]c1=O	24	125	·	103	-8	i	1.2
12	CCOC(=O)N1CCN(C(=O)CSc2ccc(-c3ccccc3)nn2)CC1	-3	108	·	98	4	i	0.86
13	COCC(C)NC(=O)C1CC(c2cccc(Br)c2)=NO1 (stereo unspecified)	0	109	-2.4	93	-3	i	0.94
14	C=CCOc1ccc(Br)cc1/C=N/O	-19	100	-1.8	106	8	i	0.93
15	CCOC(=O)c1c(/N=C/N(C)C)sc(C)c1C	·	·	·	94	1	i	0.99
16	Cn1c(=O)c(C(=O)CSc2nnc(Nc3ccccc3)s2)c(N)n(Cc2ccccc2)c1=O	-5	99	-0.2	125	-6	i	0.79
17	Cc1cc(C)n(-c2nnc(N3CCN(c4ccc(F)cc4)CC3)nn2)n1	·	·	·	111	3	i	0.95
18	COc1cccc(C(=O)NCCSc2c(C)[nH]c3ccccc23)c1OC	·	·	·	90	·	i	1
19	CCc1c(C(=O)NC2CCCC2)csc1C	33	121	-2.0	83	-6	i	0.78
20	COc1ccc2sc(N3C(=O)C4CC=C(C)CC4C3=O)nc2c1 (stereo unspecified)	-22	112	0.6	103	-1	i	0.75
21	Cc1cc(NC(=O)c2cc([N+](=O)[O-])ccc2Cl)no1	·	·	·	100	·	i	1
22	N#Cc1cccc(-c2nnc(SCc3ccccc3C#N)o2)c1	·	·	-3.2	104	8	i	0.89
23	Cc1ccc(N2CCN(c3ccc(C)cc3)C2c2ccccn2)cc1	·	·	-1.7	111	-19	i	1.1
24	CC1=NN(c2ccccc2)C(=O)/C1=C\c1cc(C)n(C)c1C	·	·	·	111	·	i	0.94
25	COC(=O)CN1C2(C#N)CCCCC2CC2CCCCC21C#N (stereo unspecified)	69	97	-2.3	105	10	i	1
26	O=C(Nc1nc(COc2ccccc2)cs1)C1CCC1	-31	165	-2.1	102	2	i	0.87
27	CC(OC(=O)c1cccs1)C(=O)NCc1ccco1 (stereo unspecified)	29	120	-2.8	128	-5	i	1.3
28	Cc1cccc(C)c1OCC(O)CNS(=O)(=O)c1ccccc1C(=O)N1CCOCC1 (stereo unspecified)	20	165	-2.6	101	-7	i	1
29	Cc1cc(NC(=O)CSc2ccc(-c3ccc(F)cc3)nn2)no1	-14	99	·	101	3	i	0.8
30	O=C1CCC(=O)N1c1nc2nc(-c3ccccc3)cc(=O)n2[nH]1	0	74	-2.6	105	0	i	0.91
31	O=C(NC(=S)NNS(=O)(=O)c1ccccc1)c1ccccc1[N+](=O)[O-]	23	114	0.7	105	-8	i	0.96
32	COCc1cc(C)nc(OCC(=O)N/N=C/c2ccc(OC)c(O)c2)c1C#N	-37	126	0.7	101	0	i	0.89
33	Cc1cc(C)c2c(=O)c3c(oc2c1)C(=O)N(CCO)C3c1cccc(O)c1 (stereo unspecified)	-16	56	-1.8	106	-12	i	0.8
34	CCCS(=O)(=O)N1CCN=C1SCc1ccc(C)cc1	0	92	·	99	4	i	0.96
35	Nc1ccccc1Nc1ccc([N+](=O)[O-])cc1[N+](=O)[O-]	-7	113	-1.3	85	-4	i	0.79
36	CC1(C(=O)OCC(=O)Nc2ccccc2Cl)CC1(Cl)Cl (stereo unspecified)	·	·	·	101	1	i	0.9
37	COCCOC(=O)c1[nH]c2c(c1C)C(=O)CC(c1cc(OC)ccc1OC)C2 (stereo unspecified)	57	70	-0.6	106	-11	i	0.79
38	CN1CCN(C(=O)c2ccc(S(=O)(=O)c3ccc(Br)cc3)cc2)CC1	·	·	-2.1	109	-12	i	0.92
39	N#Cc1ccccc1CSc1nc2ccc(NC(=O)c3ccccc3C(=O)O)cc2s1	·	·	·	99	4	i	1
40	Cc1cc(C(=O)Nc2c(C)n(C)n(-c3ccccc3)c2=O)on1	·	·	-2.3	104	-3	i	0.89
41	CSc1ccc(NC(=O)Nc2cccn(Cc3ccccc3)c2=O)cc1	33	98	·	107	-5	i	0.9
42	CCc1cc(C(=O)OC)c(NC(=O)CC2Sc3ccc(C(F)(F)F)cc3NC2=O)s1 (stereo unspecified)	·	·	1.5	107	6	i	0.95
43	CCOc1ccccc1NC1=C(Cl)C(=O)N(c2ccc(OC)cc2)C1=O	-3	107	-0.7	98	-16	i	0.97
44	O=C(O)c1sc2cc(C(F)(F)F)cnc2c1-c1cccs1	·	·	·	103	-2	i	1
45	CS(=O)(=O)N1CCN(c2ccccc2F)CC1	30	92	0.2	83	0	i	0.96
46	Cc1cc(C(=O)N/N=C2\CCCc3ccccc32)c(C)o1	·	·	-1.6	114	3	i	0.95
47	N#C/C(=C\c1ccccn1)c1nc2ccccc2s1	-362	50	·	118	5	?	·
48	Cc1ccc(C(=O)COC(=O)c2ccc(-c3cnc4ccccc4n3)cc2)cc1C	·	·	0.1	94	-11	i	1.1
49	N#CC(C#N)=Cc1ccc(OC(=O)c2ccccn2)cc1	·	·	-1.0	106	-11	i	0.99
50	Cn1c(CC(=O)Nc2ccc(Cl)c(Cl)c2)nnc1SCC(=O)N1CCN(c2ccccc2)CC1	-62	184	-0.5	99	-2	i	1.3

# Compound profiles, as listed above. Screens in order: INS promoter inh, INS promoter inh cell count, GALR2 ag, RGS16-Gao HTS, PKD1 inh, HSV replic up, HSV replic up primary fold
# `Cc1cc(C(=O)N/N=C2\CCCc3ccccc32)c(C)o1` is entered as ·, ·, -1.6, 114, 3, i, 0.95
# `Cc1ccc(C(=O)COC(=O)c2ccc(-c3cnc4ccccc4n3)cc2)cc1C` is entered as ·, ·, 0.1, 94, -11, i, 1.1
# `CS(=O)(=O)N1CCN(c2ccccc2F)CC1` is entered as 30, 92, 0.2, 83, 0, i, 0.96

# Further records.
item	compound	INS promoter inh	INS promoter inh cell count	GALR2 ag	RGS16-Gao HTS	PKD1 inh	HSV replic up	HSV replic up primary fold
51	COc1cc(/C=N\NC(=O)c2sc(N)nc2C)cc(OC)c1OC	·	·	-2.3	106	-8	i	1
52	COc1ccc(NS(=O)(=O)c2ccc(Oc3ncccn3)cc2)cc1	·	·	-2.1	105	8	i	1
53	Cc1ccc(-c2nc(CS(=O)(=O)CC(=O)N3CC(C)CC(C)C3)c(C)o2)cc1 (stereo unspecified)	·	·	-0.5	103	-6	i	1
54	CC(=O)N1CCCc2cc(S(=O)(=O)N3CCc4ccccc4C3)ccc21	-8	107	-2.2	101	-6	i	1.1
55	Cc1[nH]c(=O)[nH]c(=O)c1/C=N\NC(=O)CCc1ccc(OC(C)C)cc1	·	·	·	100	-7	i	0.91
56	Cc1ccc2nc3c(cc(C(=O)NCc4ccco4)c(=N)n3Cc3ccco3)c(=O)n2c1	12	129	·	94	-7	i	0.83
57	N#Cc1ccc2ccn(CC(=O)NCc3ccccc3)c2c1	50	121	-1.3	100	-7	i	0.65
58	COc1ccc(CCNC(=O)CSc2ccsc2[N+](=O)[O-])c(OC)c1	·	·	·	98	-4	i	0.94
59	CC1=C(C(=O)Nc2ccccc2)C(c2ccco2)C(C#N)=C(SCC(N)=O)N1 (stereo unspecified)	·	·	1.3	100	-5	i	0.98
60	Cc1nc2c(C)cccn2c1/C(O)=C1\C(=O)C(=O)N(CCN2CCOCC2)C1c1ccncc1 (stereo unspecified)	-3	100	-2.7	101	0	i	1
61	CCOC(=O)N1CCc2c(sc(NC(=O)c3ccc(S(=O)(=O)N4CCCC4)cc3)c2C#N)C1	·	·	-0.7	94	-4	·	·
62	CC(NC(=O)c1cccnc1)C(c1cccs1)N1CCN(C)CC1 (stereo unspecified)	·	·	-2.2	103	1	i	0.96
63	CC(C)(C)C(=O)N1CCc2cc(-c3csc(N)n3)ccc21	-25	99	-0.6	102	-3	i	0.87
64	O=C(c1c[nH]c2ccccc12)C(O)C(c1ccccc1)N1CCOCC1 (stereo unspecified)	-54	87	-2.2	93	3	i	1
65	CCOC(=O)c1[nH]c(C)c(C(=O)NC(C)(C)C)c1C	-7	130	-0.5	102	-8	i	0.99
66	CC(C)NC(=O)c1cc(-c2cccs2)on1	-67	87	-3.1	110	1	i	0.93
67	CCOc1ccc2[nH]c(=O)c(CN(CCO)C(c3nnnn3C3CCCCC3)C(C)C)cc2c1 (stereo unspecified)	19	105	-1.8	106	-4	i	0.84
68	O=C(Nc1ccc(Cl)cc1)Nc1cc([N+](=O)[O-])ccc1F	·	·	-2.9	103	-5	i	0.78
69	CCOC(=O)C(C)Sc1nc(=O)n2cc(C)ccc2n1 (stereo unspecified)	8	86	·	95	-5	i	0.94
70	O=C(NCC1CCCO1)c1ccc(COc2ccc(Br)cc2)cc1 (stereo unspecified)	-83	56	-0.1	65	0	i	1
71	O=C(CC1CCCCC1)NCc1ccccn1	12	150	0.0	99	-9	i	0.82
72	c1cncc(C2OCC3(CO2)COC(c2cccnc2)OC3)c1 (stereo unspecified)	53	83	·	90	-3	i	1
73	Cc1ccc2nc(-c3ccc(NC(=O)c4cccnc4)cc3)oc2c1	·	·	·	70	-6	i	0.95
74	O=C1C=C(NCCOC23CC4CC(CC(C4)C2)C3)C2(CCCCC2)O1	13	152	·	103	-6	i	0.92
75	Cc1occc1C(=O)NCc1ccccc1F	-23	112	-1.5	100	-2	i	1.1
76	CCS(=O)(=O)Nc1cc(C(=O)OC)ccc1C(=O)OC	7	104	0.0	80	-3	i	1.4
77	Cc1cc(C)c2cc(C#N)c(SCC(=O)NCC3CCCO3)nc2c1 (stereo unspecified)	·	·	-0.9	98	0	i	1
78	NC(=O)CSc1nnc(Cc2csc(Nc3ccc(F)cc3)n2)n1Cc1ccccc1	-172	124	-0.7	164	6	i	1
79	CCn1c(SCC(=O)Nc2ccc(C(C)=O)cc2)nc2nc3c(cc2c1=O)CCCC3	·	·	-1.5	100	8	i	0.73
80	Cn1c2ccccc2n2c(=O)cc(-c3ccccc3)c(C#N)c12	·	·	·	92	·	i	1
81	CC1=C(C(=O)Nc2ccccc2)C(c2cccnc2)n2ncnc2N1 (stereo unspecified)	13	68	·	108	0	i	1.1
82	CCCC1CC(C)(c2csc(Nc3ccc(OCC)cc3)n2)OC1=O (stereo unspecified)	-400	89	0.3	98	-1	i	0.88
83	CCOc1ccccc1C(=O)N1CCN=C1SCc1cccnc1	·	·	-1.0	96	12	i	1
84	CC(C)Cc1csc(NC(=O)C(C)C)c1C(=O)O	·	·	·	97	·	i	1
85	CC(C)(C)Nc1nc(Cl)nc(NCc2ccccc2)n1	·	·	·	80	·	i	0.96
